# Vaccinia inh: blocks a specific stage of Vaccinia orthopoxvirus infection; actives 0.01% (n = 89,000); activity change (mCherry), % (concentration not given with the values); AID 1053133; Vaccinia-infected cells, mCherry/Venus stage reporter fluorescence; stronger effect = lower value; some inactives read as strong as hits;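 active = mCherry past -33% and 40 or more points under the early reporter, replicates agreeing; inconclusive = past -33% without that gap or agreement; tested in A549 cells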;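 note: scaled between vehicle wells and reference inhibitor wells; 23 nL library stock went into each well; one replicate is shown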
# Vaccinia inh Venus: second read-out of Vaccinia inh, no call of its own (marks repeat the call); activity change (Venus), %; measured here: Venus reporter, other viral stage;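 negative = less Venus signal; first of two replicates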
# Active calls of the source: *; ? = inconclusive; nt = no result given.
molecule | Vaccinia inh | Vaccinia inh Venus
COCC(=O)N1[C@@H](C#N)[C@@H](c2ccccc2-c2ccccc2)[C@@H]1CO | 7 | 2
Cc1noc(C)c1S(=O)(=O)N(C)C[C@@H]1OCCCC[C@@H](C)Oc2ccc(N(C)C)cc2C(=O)N([C@H](C)CO)C[C@H]1C | -9 | -8
C[C@H](CO)N1C[C@H](C)[C@@H](CN(C)Cc2cccnc2)Oc2ncc(C#Cc3ccccn3)cc2C1=O | 9 | 5
O=C(CN1CCOCC1)N1CC(=O)N2[C@H](C1)[C@@H](c1ccc(-c3cccc(F)c3)cc1)[C@@H]2CO | 8 | 1
C[C@@H]1CN([C@H](C)CO)C(=O)c2cccc(NC(=O)Nc3ccc(F)cc3)c2O[C@@H]1CN(C)C(=O)Nc1cccc2ccccc12 | -20 | -10
Cc1nc(S(=O)(=O)N[C@@H]2CCN(Cc3ccc(OCCO)cc3)C2)cn1C | 16 | 9
C[C@@H]1CN([C@H](C)CO)C(=O)Cc2cc(NC(=O)Cn3cnnn3)ccc2O[C@@H]1CN(C)S(=O)(=O)c1ccc(F)cc1 | 16 | 3
CC(C)NC(=O)Nc1ccc2c(c1)C(=O)N([C@H](C)CO)C[C@H](C)[C@@H](CN(C)Cc1ccccc1)OCCCC[C@H](C)O2 | 2 | 3
C[C@@H]1CN([C@@H](C)CO)C(=O)c2cc(C#CCC3CCCC3)cnc2O[C@@H]1CN(C)Cc1ccccn1 | -29 | -18
Cc1ccc(-c2cnc3c(c2)C(=O)N([C@@H](C)CO)C[C@@H](C)[C@@H](CN(C)S(C)(=O)=O)O3)cc1 | -21 | -15
COc1ccc(NC(=O)N(C)C[C@H]2OCCCC[C@H](C)Oc3ccc(NS(=O)(=O)c4ccc(C)cc4)cc3C(=O)N([C@@H](C)CO)C[C@H]2C)cc1 | 12 | 12
CO[C@H]1CN(C)C(=O)c2ccc(NC(=O)Nc3ccccc3F)cc2OC[C@H](C)N(Cc2ccccc2C(=O)O)C[C@@H]1C | 29 | 22
Cc1noc(C)c1NC(=O)Nc1ccc2c(c1)C(=O)N([C@@H](C)CO)C[C@@H](C)[C@@H](CN(C)S(=O)(=O)c1ccc(Cl)cc1)OCCCC[C@H](C)O2 | 15 | 3
C[C@@H]1CN([C@H](C)CO)C(=O)c2cc(Br)cnc2O[C@@H]1CN(C)C(=O)c1cccnc1 | 26 | 6
Cc1ccc(S(=O)(=O)Nc2cccc3c2O[C@H](CN(C)C)[C@@H](C)CN([C@H](C)CO)C3=O)cc1 | 11 | -1
C[C@H](CO)N1C[C@H](C)[C@@H](CN(C)Cc2ccncc2)Oc2ccc(NC(=O)CCCN(C)C)cc2CC1=O | 17 | 5
C[C@@H](O)C#Cc1ccc2c(c1)O[C@@H](CN(C)Cc1cccnc1)[C@@H](C)CN([C@@H](C)CO)S2(=O)=O | 13 | 11
C[C@H]1CCCCO[C@H](CN(C)CC2CC2)[C@@H](C)CN([C@@H](C)CO)C(=O)c2cc(NC(=O)C3CCCCC3)ccc2O1 | 0 | -9
C[C@H](CO)N1C[C@H](C)[C@@H](CN(C)C(=O)c2ccc(F)cc2)Oc2ncc(C#CCN(C)C)cc2C1=O | 25 | 4
O=C(CC1CC1)N1CC2(C1)[C@@H](c1ccccc1)[C@@H](CO)N2CC1CCOCC1 | 6 | 5
C[C@H](CO)N1C[C@H](C)[C@@H](CN(C)S(=O)(=O)c2ccc(F)cc2)Oc2cc(C#Cc3ccncc3)ccc2S1(=O)=O | -21 | -19
CC(=O)Nc1ccc2c(c1)C(=O)N(C)[C@H]1CC[C@@H](CC(=O)Nc3cn(C)nc3C)O[C@H]1CO2 | 3 | -3
C[C@H](O)C#Cc1ccc2c(c1)O[C@@H](CN(C)CC1CCOCC1)[C@H](C)CN([C@@H](C)CO)S2(=O)=O | 4 | 4
COc1ccc(NC(=O)N(C)C[C@@H]2OCCCC[C@@H](C)Oc3ccc(NC(=O)Nc4ccccc4)cc3C(=O)N([C@@H](C)CO)C[C@H]2C)cc1 | -10 | -1
C[C@H](CO)N1C[C@H](C)[C@@H](CN(C)Cc2ccncc2)Oc2c(NC(=O)C3CCCCC3)cccc2C1=O | -1 | -1
COc1ccc2c3c(n(C)c2c1)[C@@H](CO)N(C(=O)c1ccncc1)CC31CN(CC2CC2)C1 | 16 | 7
COc1ccc(-c2ccc3c(c2)O[C@H](CN(C)Cc2cccnc2)[C@@H](C)CN([C@H](C)CO)S3(=O)=O)cc1 | ? | nt
CCC(=O)N1CCCCN2[C@@H](CO)[C@@H](c3ccc(C#Cc4ccccc4F)cc3)[C@@H]2C1 | ? | nt
CO[C@@H](C(=O)N(C)C[C@@H]1OCc2ccccc2-c2ccccc2C(=O)N([C@H](C)CO)C[C@@H]1C)c1ccccc1 | 5 | -8
COc1ccc([Si](C)(C)[C@@H]2[C@@H](CCO)O[C@]3(C(=O)N(Cc4cccc(N5CCCCC5=O)c4)c4ccccc43)[C@H]2C)cc1 | ? | nt

# Reformatted: results already given
> C[C@@H](O)C#Cc1ccc2c(c1)O[C@@H](CN(C)Cc1cccnc1)[C@@H](C)CN([C@@H](C)CO)S2(=O)=O
- Vaccinia inh: 13
- Vaccinia inh Venus: 11
> C[C@H]1CCCCO[C@H](CN(C)CC2CC2)[C@@H](C)CN([C@@H](C)CO)C(=O)c2cc(NC(=O)C3CCCCC3)ccc2O1
- Vaccinia inh: 0
- Vaccinia inh Venus: -9
> C[C@H](CO)N1C[C@H](C)[C@@H](CN(C)C(=O)c2ccc(F)cc2)Oc2ncc(C#CCN(C)C)cc2C1=O
- Vaccinia inh: 25
- Vaccinia inh Venus: 4
> O=C(CC1CC1)N1CC2(C1)[C@@H](c1ccccc1)[C@@H](CO)N2CC1CCOCC1
- Vaccinia inh: 6
- Vaccinia inh Venus: 5

# (next part)
molecule | Vaccinia inh | Vaccinia inh Venus
COc1ccc2c3c(n(C)c2c1)[C@H](CO)N(C(=O)c1ccccc1)CC31CCN(C(=O)c2ccccc2)CC1 | ? | nt
C[C@@H]1CCCCO[C@H](CN(C)S(C)(=O)=O)[C@@H](C)CN([C@H](C)CO)C(=O)c2cc(NS(=O)(=O)c3cn(C)cn3)ccc2O1 | 7 | 4
CCN(C[C@@H]1N[C@H](CO)[C@H]1c1ccc(C2=CCCC2)cc1)C(=O)c1ccncc1 | -24 | -1
O=C(c1ccccc1F)N1CC[C@H]2[C@H](CO)Nc3ccc(C#Cc4ccc(F)cc4)cc3[C@H]21 | ? | nt
C[C@H]1CN([C@@H](C)CO)C(=O)c2cccc(NC(=O)C3CC3)c2O[C@@H]1CN(C)C | 5 | 0
C[C@@H]1CN([C@@H](C)CO)C(=O)c2cc(NC(=O)Nc3ccc(C(F)(F)F)cc3)ccc2O[C@H]1CN(C)Cc1ccccc1 | ? | nt
CCCNC(=O)N1CC2(CN(C(=O)C3CCCCC3)C2)c2c([nH]c3cc(OC)ccc23)[C@H]1CO | -3 | -14
CN1C(=O)c2cc(NC(=O)c3cscn3)ccc2OC[C@@H]2O[C@@H](CC(=O)N3CCCCC3)CC[C@H]21 | 11 | 5
COc1ccc(-c2ccc([C@H]3[C@@H](C#N)N(C(=O)C4CCC4)[C@@H]3CO)cc2)cc1 | -31 | -16
COc1ccc(CN2C[C@H](O)COC[C@@H]3O[C@H](CC(=O)N(C)C)CC[C@H]32)cc1 | 17 | 11
O=C(NC1CC1)C1=C[C@H](c2coc3ccccc3c2=O)C[C@H](OCCCCO)O1 | 18 | 14
N#C[C@H]1[C@@H](c2ccc(C3=CCCC3)cc2)[C@H](CO)N1C(=O)c1ccccn1 | 22 | 7
C[C@H]1CN([C@@H](C)CO)C(=O)c2cc(C#Cc3ccccc3F)cnc2O[C@H]1CN(C)C(=O)C1CC1 | 3 | -6
C[C@@H]1CN([C@H](C)CO)C(=O)c2c(c3ccccc3n2C)-c2ccccc2CO[C@H]1CN(C)Cc1cccc2c1OCCCO2 | ? | nt
C[C@@H]1CN([C@H](C)CO)C(=O)c2c(c3ccccc3n2C)-c2ccccc2CO[C@H]1CN(C)C(=O)Nc1ccc(-c2ccccc2)cc1 | ? | nt

# Rewritten with values under each structure: entries from further up
# Results follow in this order: Vaccinia inh | Vaccinia inh Venus
> COc1ccc2c3c(n(C)c2c1)[C@H](CO)N(C(=O)c1ccccc1)CC31CCN(C(=O)c2ccccc2)CC1
 : ? | nt
> C[C@H]1CN([C@@H](C)CO)C(=O)c2cccc(NC(=O)C3CC3)c2O[C@@H]1CN(C)C
 : 5 | 0

# The results go on:
molecule | Vaccinia inh | Vaccinia inh Venus
COc1ccc(S(=O)(=O)Nc2ccc3c(c2)CC(=O)N([C@H](C)CO)C[C@@H](C)[C@@H](CN(C)Cc2ccc(Cl)c(Cl)c2)O3)cc1 | ? | nt
N#C[C@@H]1[C@H](c2ccccc2)[C@H](CO)N1C(=O)Cc1ccccc1 | 9 | 3
COc1ccccc1CNC(=O)C[C@H]1CC[C@@H](NC(C)=O)[C@@H](CO)O1 | 4 | 12
COc1ccc2c3c([nH]c2c1)[C@@H](CO)N(C(=O)NC(C)C)CC31CCN(C(=O)c2ccccn2)CC1 | 13 | 4
C[C@H]1CN([C@@H](C)CO)C(=O)c2c(c3ccccc3n2C)-c2ccccc2CO[C@H]1CN(C)S(=O)(=O)c1ccc([N+](=O)[O-])cc1 | ? | nt
CO[C@@H]1CN(C)C(=O)c2cc(NC(=O)C3CCCCC3)ccc2OC[C@@H](C)N(C)C[C@H]1C | -2 | -3
C[C@H]1CN([C@@H](C)CO)C(=O)c2cc(-c3ccccc3F)cnc2O[C@@H]1CN(C)C(=O)C1CCC1 | -17 | -11
C[C@@H]1CN([C@H](C)CO)C(=O)c2cccc(NC(=O)NC3CCCCC3)c2O[C@H]1CN(C)C(=O)Nc1cccc2ccccc12 | 0 | 2
COc1ccccc1CNC(=O)C[C@@H]1CC[C@@H]2[C@H](COC[C@H](O)CN2C(=O)Nc2ccccc2)O1 | 2 | 10
C[C@@H]1CCCCO[C@@H](CN(C)C(=O)Nc2ccccc2)[C@H](C)CN([C@@H](C)CO)C(=O)c2cc(NS(C)(=O)=O)ccc2O1 | 25 | 10
CNC(=O)C[C@@H]1CC[C@@H]2[C@H](COC[C@H](O)CN2C(=O)Nc2ccc(Cl)c(Cl)c2)O1 | -6 | 2
COCC(=O)N(C)C[C@H]1Oc2cc(C#CC(C)C)ccc2S(=O)(=O)N([C@H](C)CO)C[C@@H]1C | -6 | -5
C[C@@H]1CCCCO[C@@H](CN(C)C(=O)Nc2ccc(F)cc2)[C@@H](C)CN([C@H](C)CO)C(=O)c2cc(NC(=O)Nc3ccccc3)ccc2O1 | 17 | 9
COC(=O)c1ccc(CN2CC(=O)N3[C@H](CO)[C@H](c4ccc(Br)cc4)[C@@H]3C2)cc1 | 7 | 2
CC(C)NC(=O)Nc1ccc2c(c1)C(=O)N([C@@H](C)CO)C[C@@H](C)[C@H](CN(C)C(=O)NC(C)C)OCCCC[C@@H](C)O2 | 29 | -3
CCNC(=O)C[C@@H]1CC[C@@H]2[C@H](COc3ccc(NC(=O)c4cc(C)on4)cc3C(=O)N2C)O1 | 10 | 6
CNC(=O)C[C@H]1CC[C@@H]2[C@H](COc3ccc(NC(=O)Nc4cccc(Cl)c4)cc3C(=O)N2C)O1 | 8 | 13
COCC#Cc1cnc2c(c1)C(=O)N([C@H](C)CO)C[C@H](C)[C@H](CN(C)C(=O)NC1CCCC1)O2 | 12 | 11
CCC(=O)N(C)C[C@H]1Oc2cc(C#CC3CCCC3)ccc2S(=O)(=O)N([C@H](C)CO)C[C@H]1C | -17 | -16
C[C@@H]1CN([C@H](C)CO)C(=O)c2cc(NC(=O)c3ccccc3)ccc2O[C@@H](C)CCCCO[C@H]1CN(C)C(=O)Nc1ccccc1 | -14 | -8
C[C@@H]1CCCCO[C@@H](CN(C)C)[C@@H](C)CN([C@@H](C)CO)C(=O)c2cc(NS(C)(=O)=O)ccc2O1 | 7 | 3
CC(=O)N(C)C[C@H]1Oc2cc(-c3ccncc3)ccc2S(=O)(=O)N([C@H](C)CO)C[C@H]1C | 16 | 7
O=C(N[C@H]1CC[C@@H](CCNC(=O)C2CCCCC2)O[C@@H]1CO)c1ccccn1 | 7 | 5
COc1ccccc1C#Cc1ccc([C@H]2[C@@H](C#N)N(C(=O)C3CCCC3)[C@H]2CO)cc1 | ? | nt
COc1ccc(NC(=O)Nc2cccc3c2O[C@@H](CN(C)C(=O)Nc2ccc(OC)cc2)[C@H](C)CN([C@@H](C)CO)C3=O)cc1 | 11 | 5
C[C@@H]1CCCCO[C@H](CN(C)S(=O)(=O)c2ccc(Cl)cc2)[C@H](C)CN([C@H](C)CO)C(=O)c2cc(NC(=O)Cc3ccccc3)ccc2O1 | -29 | -26
C[C@H](CO)N1C[C@H](C)[C@H](CN(C)Cc2ccc(-c3ccccc3)cc2)Oc2ncc(C#C[C@@H](C)O)cc2C1=O | -9 | -1
CO[C@H]1CN(C)C(=O)c2ccc(NC(=O)c3cccc(F)c3)cc2OC[C@H](C)N(C)C[C@@H]1C | -2 | 8
Cc1noc(C)c1NC(=O)Nc1ccc2c(c1)C(=O)N(C)[C@@H]1CC[C@@H](CC(=O)N[C@@H]3CCN(Cc4ccccc4)C3)O[C@@H]1CO2 | -5 | 1
C[C@H](CO)N1C[C@H](C)[C@@H](CN(C)C)Oc2ccc(NS(=O)(=O)c3cn(C)cn3)cc2C1=O | 29 | 19
CO[C@@H](CN(C)C(=O)c1ccc2c(c1)OCO2)[C@H](C)CN([C@H](C)CO)S(=O)(=O)c1ccc(C)cc1 | 7 | 10
C[C@H](CO)N1C[C@H](C)[C@@H](CN(C)Cc2ccc(Oc3ccccc3)cc2)Oc2ccc(NC(=O)CCCN(C)C)cc2CC1=O | -32 | -33
Cc1noc(C)c1NC(=O)N(C)C[C@@H]1Oc2ccc(NC(=O)Nc3cccc4ccccc34)cc2CC(=O)N([C@@H](C)CO)C[C@H]1C | 3 | 13
CCc1nc(N2[C@H](C#N)[C@@H](c3ccccc3-c3ccc(F)cc3)[C@H]2CO)sc1C | -5 | 1
O=C(C[C@H]1C=C[C@H](NC(=O)Nc2cc(F)ccc2F)[C@H](CO)O1)Nc1ccc(-c2ccccc2)cc1 | -7 | -4

# From PubChem

# Not all compounds are listed. The share of hits here may be higher or lower than overall.
